Rango-impB inh – prevents formation of the Rango-importin beta complex. Rango CFP/YFP FRET sensor + importin beta, 45 min. actives 0.031% (n = 340,000). Potency, µM (titrated, usually from 92.2 µM), inactives show top-dose inhibition of complex formation; active = rising FRET ratio curve, often small or poorly fitted; inconclusive = mostly compound fluorescence or quenching in the first reads; inactive = flat curves in all reads;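 further: potency means the concentration at half of the fitted maximal effect; 0% = DMSO wells and 100% = buffer wells lacking importin beta; nearly all actives have a fitted effect of over 15% in size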
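FRET biosensor (snurportin 1 IBB flanked by EYFP and cerulean), 50 nM, with compound 5 min, then 0.125 microM importin beta in PBS, 1 mM DTT, 0.02% Tween-20, 0.1% BSA. CFP/YFP ratio read after 45 min at room temperature; pre-read flags interference.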
Rango release inh – inhibitors of RanGTP-induced Rango-importin beta complex dissociation; actives 0.071% (n = 340,000); Potency, µM (titrated, usually from 46.1 µM), inactives show at the highest dose activity change, negative = inhibition; Biochemical FRET Rango-importin beta, RanGTP-induced dissociation; O95149+P62826; AID 540253; active means falling FRET ratio curve, often poorly fitted, with flat reads before Ran was added; inconclusive means other falling curves, or compound fluorescence or quenching; inactive means flat or rising ratio curve;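 further: potency means the concentration at half of the fitted maximal effect; % of control where 0% means no effect; nearly all actives have a fitted effect of over 45% in size; -100% = wells without RanGTP and RCC1; the record marks most hits as doubtful in a second field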
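Rango/importin beta premix (0.1/0.25 uM final), PBS + 1 mM DTT + 0.02% Tween-20 + 0.1% BSA; cpd 5 min RT; FRET pre-read; + RanGTP-RCC1 (0.6 uM Ran, 2 mM GTP, 0.2 uM RCC1); 45 min RT; FRET post-read, ex 430, em 486/530 nm.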
GLA inh pH 4.5 – inhibitors of human alpha-galactosidase A at pH 4.5; purified enzyme, 4-MU-alpha-Gal fluorescence, pH 4.5; 230,000 tested, under 10 active; activity change, negative = inhibition, % at 105 µM; P06280; inconclusive = small, poorly fitted or top-dose-only inhibition, or a rising curve; inactive = flat fitted curve, though single readings scatter; no compound was filed as active;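 further: 0% = full activity with enzyme and -100% = basal without enzyme; dose as in the result columns while the protocol names 77 µM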
Target sequence (P06280 whole entry, looked up): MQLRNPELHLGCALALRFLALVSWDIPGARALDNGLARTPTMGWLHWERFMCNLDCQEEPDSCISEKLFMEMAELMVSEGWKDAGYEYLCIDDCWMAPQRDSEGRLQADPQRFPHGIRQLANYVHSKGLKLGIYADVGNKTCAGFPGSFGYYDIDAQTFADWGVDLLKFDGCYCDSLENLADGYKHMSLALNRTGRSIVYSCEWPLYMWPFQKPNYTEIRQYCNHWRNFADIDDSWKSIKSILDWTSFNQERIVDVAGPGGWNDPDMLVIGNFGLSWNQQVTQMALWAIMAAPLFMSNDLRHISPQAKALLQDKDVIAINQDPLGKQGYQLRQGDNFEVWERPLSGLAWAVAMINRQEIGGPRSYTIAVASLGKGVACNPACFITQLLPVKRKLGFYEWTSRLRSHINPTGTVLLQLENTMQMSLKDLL
miR-21 reporter – raises the signal of a miR-21 reporter | 340,000 tested, under 10 active | Potency, µM (titrated, usually from 38.3 µM), without a hit: top-dose reporter change, positive = more light | HeLa miR-21 FLuc reporter, luciferase, 48 h; active = well fitted rising curve with a large enough effect; inconclusive = small, poorly fitted or top-dose-only effect; inactive = no such curve, though single readings can be large or run the other way;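 further: % of control where 0% means no effect; miR-21 action dims this reporter so a rising signal means less miR-21 action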
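HeLa cells endogenously expressing miR-21, stably carrying CMV-driven firefly luciferase with a downstream miR-21 binding site, 2000 cells/well. Titrations up to approximately 40 uM, 48 hours; luciferase luminescence read.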
Numbers without * were called inactive; ? = inconclusive; nt = not tested or not shown; & = joins results of further samples. Only part of the results is shown; count on the stated rates, not on these rows.

Order of values: Rango release inh, Rango-impB inh, miR-21 reporter, GLA inh pH 4.5
> CC(=O)N1CCc2c(sc(NC(=O)CCS(=O)(=O)c3ccccc3)c2C(N)=O)C1
  -6%, ?, 12%, nt
> Cc1nnc2sc(SCc3ccc(Cl)cc3)nn2c1=O
  -9%, -3.9%, -7%, -5
> O=S(=O)(NC1CC1)c1ccc(S(=O)(=O)N2CCCC(c3nc(-c4cccnc4)no3)C2)cc1 (centres undefined)
  3%, -0.2%, 3%, 3
> CSc1cccc(NC(=O)Nc2ccc(Cl)cc2)c1
  1%, 3.1%, -11%, 8
> O=C(c1ccc2nc(Cc3cccc(Cl)c3)oc2c1)N1CCC(O)CC1
  -12%, 0.3%, -24%, nt
> Fc1ccc(NC(=S)NCc2ccccc2)cc1
  -2%, 0.3%, 6%, nt
> N#CC(c1ccc(O)cc1)c1ncc(C(F)(F)F)cc1Cl (centres undefined)
  -17%, -0.8%, -6%, 3
> COc1ccc(CCNC(=O)COc2ncnc3ccccc23)cc1
  -3%, -4.6%, -1%, 17
> CC1C(=O)Nc2ccccc2N1C(=O)c1ccc(Cl)c(Cl)c1 (centres undefined)
  -1%, 5.5%, -1%, nt
> O=C(OCc1nc2ccccc2s1)C1CCN(C2=NS(=O)(=O)c3ccccc32)CC1
  7%, ?, -46%, 6
> CCCN(CCC)CCCNC(=O)C1CCC(CNS(=O)(=O)c2cccc3nsnc23)CC1 (centres undefined)
  2%, -2.6%, -6%&0%, nt
> COC(=O)C1CC23C=CCN4CCC5(c6ccccc6NC15C2C)C43 (centres undefined)
  -8%, 0.0%, 22%, nt
> COc1ccc(C)cc1Nc1n[n+](-c2ccccc2)c(-c2ccc(N(C)C)cc2)s1
  ?, ?, 18%, nt
> Cc1ccccc1C(=O)N/N=C/c1ccccn1
  9%, -3.2%, -32%, -1
> CCCn1c(N)c(C(=O)CSc2nc3ccccc3n2CCC#N)c(=O)n(C)c1=O
  10%, ?, -5%, 3
> O=C(CN1CCOCC1)NNc1nc(-c2ccccc2)c2cc(Br)ccc2n1
  -1%, -0.2%, 4%, -2
> O=C(N/N=C/c1ccco1)c1ccccc1OCc1ccc(Br)cc1
  6%, 0.2%, -7%, -2
> COc1ccc2[nH]c3c(c2c1)CCN1C(=O)C(CC(=O)NCc2cccc(C(F)(F)F)c2)C[C@H](C(=O)N2CCCCC2)[C@@]31CCc1ccccc1 (some centres undefined)
  -8%, 0.4%, nt, nt
> COc1ccc(-c2nn(-c3ccccc3)cc2/C=C\C(=O)N2CCOCC2)cc1[N+](=O)[O-]
  1%, -1.8%, -17%, 8
> CN1CCN(C(=O)c2ccc(N(Cc3ccc(Cl)cc3)S(C)(=O)=O)cc2)CC1
  -12%, -3.4%, 0%, 6

Record cards, from the list above:
O=C(OCc1nc2ccccc2s1)C1CCN(C2=NS(=O)(=O)c3ccccc32)CC1 as listed: Rango release inh: 7%; Rango-impB inh: ?; miR-21 reporter: -46%; GLA inh pH 4.5: 6
COc1ccc(C)cc1Nc1n[n+](-c2ccccc2)c(-c2ccc(N(C)C)cc2)s1 as listed: Rango release inh: ?; Rango-impB inh: ?; miR-21 reporter: 18%; GLA inh pH 4.5: nt

(more compounds)
Order of values: Rango release inh, Rango-impB inh, miR-21 reporter, GLA inh pH 4.5
> COc1ccccc1CN(C(=O)CNC(=O)c1ccco1)C(C(=O)NCC1CCCO1)c1ccccc1 (centres undefined)
  18%, -2.0%, 11%, nt
> COc1ccc(CNc2ccc(S(N)(=O)=O)cc2)c(OC)c1OC
  1%, ?, -6%, 2
> CC(C)NS(=O)(=O)c1ccc(CCC(=O)O)cc1
  -1%, -2.2%, 1%, 0
> COc1ccc(N(CC(=O)NN=C2CCCC2)S(=O)(=O)c2ccccc2)cc1
  14%, -1.0%, 3%, 0
> COc1ccccc1N1CCN(C(=O)c2ccc3c(Cl)c4c(nc3c2)CCCC4)CC1
  -13%, ?, -5%, 2
> COc1cc(NC(=O)c2ccnnc2)cc(C(=O)Nc2cccc(C(F)(F)F)c2)c1
  13%, -3.2%, 11%, -8
> Cc1[nH]c2ccccc2c1/C=N/NC(=O)c1cc(C(C)(C)C)[nH]n1
  -7%, 3.4%, -5%, -3
> COc1ccc(NS(=O)(=O)c2cccs2)cn1
  16%, -1.7%, 1%, 0
> CCOc1cc(/C=N/NC(=O)c2ccccn2)ccc1OC(=O)c1cccs1
  -1%, -0.8%, -33%, nt
> CCn1cc(C(=O)NCCCN2CCCC2)c(=O)c2cc(S(=O)(=O)N3CCc4ccccc4C3)ccc21
  10%, -2.0%, 1%, -8
> Cc1[nH]c2ccccc2c1/C=C/c1nc2ccccc2c(=O)n1-c1ccc([N+](=O)[O-])cc1
  1%, 0.3%, -15%, -5
> CCCn1c(N)c(C(=O)CSc2nc3ccccc3s2)c(=O)[nH]c1=O
  1%, 9.4%, 12%, -4
> CC(C)C[C@H](N)c1cn([C@@H](Cc2ccc(O)cc2)C(=O)N2CCNCC2)nn1
  -13%, -3.1%, -5%, 4
> CC(C)(C)OC(=O)NCCCCCNC(=O)c1[nH]cnc1C(=O)NC1CCN(C(=O)OC(C)(C)C)CC1
  7%, -0.7%, nt, nt
> C/C(=C1/C(=O)N(c2ccc([N+](=O)[O-])cc2)N=C1c1ccccc1)N(C)C
  nt, nt, 6%, -7
> O=C(Nc1ccc(Br)cc1F)C1CC(=O)N(C2CCCCC2)C1 (centres undefined)
  -4%, -3.1%, -1%, nt
> Cc1noc(C)c1COc1ccccc1C(=O)N1CCN(c2cccc(C(F)(F)F)c2)CC1
  8%, -1.1%, nt, nt
> COc1ccc(N=C(c2ccccc2)c2c(C)[nH]n(-c3ccccc3)c2=O)c(OC)c1
  15%, ?, 16%, -6
> COc1ccc(NC(=O)C(CCSC)NC(N)=O)cc1NS(=O)(=O)c1ccc(F)cc1 (centres undefined)
  0%, -4.0%, 4%, -10
> O=C(CN1C(=O)c2cccnc2Oc2ccc(Cl)cc21)Nc1ccccc1F
  1%, ?, -9%, nt

The list continues.
Order of values: Rango release inh, Rango-impB inh, miR-21 reporter, GLA inh pH 4.5
> Cc1cc(=O)[nH]c(SCCOc2ccc(OC(C)C)cc2)n1
  -8%, 3.4%, -12%, -3
> CC(C)Cc1cc(C(=O)Nc2ccccc2)c2ccccc2n1
  5%, -0.1%, 2%, nt
> CCOC(=O)N1CCN(C(=O)C2CCCN(S(=O)(=O)c3ccccc3)C2)CC1 (centres undefined)
  0%, -1.3%, 7%, -2
> CC(=O)Nc1ccc(S(=O)(=O)n2nc(-c3ccc(C)cc3)nc2N)cc1
  0%, ?, -28%, -2
> N#CCNC(=O)C1c2ccccc2Oc2ccccc21
  4%, -2.6%, 0%, nt
> CSc1nnc(C)c(=O)n1COC(=O)c1ccc(S(=O)(=O)N2CCOCC2)cc1
  13%, 5.8%, 0%, 0
> Cc1ccccc1CS(=O)(=O)c1snnc1C
  0%, 0.8%, 4%, 6
> Cc1c(NC(=O)c2nn3c(C(F)(F)F)cc(-c4ccccc4)nc3c2Cl)c(=O)n(-c2ccccc2)n1C
  8%, -0.5%, 3%, -9
> C#CCOCCOCCOCCNc1nc(N2CCN(C(=O)[C@H](CCCN=C(N)N)n3cc(C(N)[C@@H](C)CC)nn3)CC2)nc(N2CCN(C(=O)[C@H](CCC(=O)O)n3cc([C@@H](N)CCCCN)nn3)CC2)n1 (some centres undefined)
  8%, ?, nt, nt
> CC(C)C(NC(=O)C(NC(=O)C1O[C@@H]2OC(C)(C)O[C@@H]2[C@H]2OC(C)(C)O[C@@H]12)C(C)C)C(=O)O (some centres undefined)
  -9%, -1.1%, -1%, 2
> COc1ccc(CNC(=O)CN2CCN(c3ccccc3O)CC2)cc1OC
  1%, -1.3%, -12%, nt
> CCOC(=O)C1CCN(c2c(NCCN3CCCCC3C)c(=O)c2=O)CC1 (centres undefined)
  6%, 0.1%, -9%, 1
> Cc1ccccc1C(=O)O/N=C(\N)c1ccc([N+](=O)[O-])cc1
  -6%, 4.9%, -34%, nt
> O=c1c2c3c(sc2nc2n1CCC2)CCC3
  6%, 0.5%, -7%, 4
> O=S(=O)(Nc1ccccn1)c1ccc(Cl)c2ccccc12
  2%, -0.2%, -4%, -1
> O=C(O)CCCNS(=O)(=O)c1ccccc1
  -2%, 2.2%, -11%, -5
> Cc1csc(N(C(=O)c2ccccc2F)c2ccccc2)n1
  -13%, -2.4%, 0%, -6
> O=C(COC(=O)CSc1ccc2ccccc2c1)NCc1ccc2c(c1)OCO2
  -1%, 0.4%, -3%, -23
> CN(C)c1nc(N/N=C/c2ccccc2O)nc(Nc2ccc(F)cc2)n1
  1%, -0.3%, 23%, -5
> COc1cc2c3c(c1)/C(=C1/SC(=S)NC1=O)C(=O)N3C(C)(C)C=C2C
  4%, -2.1%, -1%, 6

Additional records
Order of values: Rango release inh, Rango-impB inh, miR-21 reporter, GLA inh pH 4.5
> CC(=O)OCCc1c2ccccc2c(CCCN(C)C)c2ccccc12
  -9%, 0.3%, nt, nt
> CCOC(=O)N1CCN(Cc2nc3cc(NC(=O)CC)ccc3n2CC)CC1
  11%, -0.7%, 13%, nt
> CCOC(=O)c1c(C=O)c(C)n(Cc2ccccc2)c1C
  -9%, -0.2%, -10%, 6
> N#C/C(=C/c1ccc(N2CCCC2)c([N+](=O)[O-])c1)c1nc2ccccc2[nH]1
  -23%, ?, -31%, 6
> O=C(CC(=O)NN=C1CCCCCC1)NCc1cccnc1
  -17%, ?, -6%, -15
> COc1ccc(CN(CC(=O)NC2CCCC2)C(=O)CCC(=O)Nc2cc(C)on2)cc1
  -7%, -2.1%, -2%, -2
> O=C(CSc1ccc(-c2ccco2)nn1)NCc1ccc(Cl)cc1
  1%, -3.8%, -9%, 6
> COc1cc(-c2ccc(NC(C)=O)c(OC)c2)ccc1NC(C)=O
  -7%, -1.1%, -1%, -4
> CS(=O)(=O)c1ccc(NC(=O)CCCc2nc3ccccc3c(=O)[nH]2)cc1
  7%, -1.0%, nt, nt
> Cc1ccc(NC(=S)NC2CCN(Cc3ccccc3)CC2)cc1C
  4%, 0.2%, 13%, 2
> O=C(CCc1ccc(F)c(F)c1)NC1CCCN(Cc2ccc(Cl)cc2)C1 (centres undefined)
  6%, 1.8%, 8%, nt
> CC(CN1CCCCC1)OC(=O)COc1ccc(Cl)cc1 (centres undefined)
  7%, -0.7%, 1%, nt
> CC(NC(=O)c1ccc2ccccc2n1)c1ccc(S(N)(=O)=O)cc1 (centres undefined)
  -11%, -3.3%, -15%, nt
> CCOC(=O)c1sc(NC(=O)CSc2nc(-c3ccco3)cc(C(F)(F)F)n2)c(C(=O)OCC)c1C
  -14%, -0.2%, nt, nt
> COc1cccc(NC(=S)N2CCN(S(=O)(=O)c3ccc(F)cc3)CC2)c1
  -4%, -0.7%, -5%, nt
> O=C(NCCCO)/C(=C\c1ccco1)NC(=O)c1ccco1
  -3%, 1.9%, 0%, nt
> Cc1cccc(NC(=O)CCC(=O)N/N=C/c2cc([N+](=O)[O-])ccc2O)c1
  -29%, 1.4%, 8%, -7
> Cc1nnc(NC(=O)C2CCCO2)s1 (centres undefined)
  -13%, -1.2%, -5%, 4
> O=C(CSCc1ccc(Br)cc1)NCc1ccccn1
  8%, -0.8%, -3%, 0
> COc1ccc(S(=O)(=O)Cc2ccc(C(=O)NCCCN3CCc4ccccc4C3)o2)cc1
  0%, 2.2%, -7%, -2

The results go on.
Order of values: Rango release inh, Rango-impB inh, miR-21 reporter, GLA inh pH 4.5
> CCCN(CC(=O)Nc1ccccc1C)C(=O)c1ccc(-c2ccccc2)cc1
  0%, -0.1%, -9%, nt
> COc1ccccc1C(=O)N1CCN(Cc2nc3cc([N+](=O)[O-])ccc3n2C)CC1
  0%, 4.8%, -2%, 1
> Cc1nn(Cc2noc(C(=O)NCCCn3ccnc3)n2)c(C)c1Br
  2%, 5.3%, 7%, nt
> COc1ccc(Cc2nnc(Cl)c3ccccc23)cc1OC
  2%, 0.4%, -19%, nt
> Cn1cc(Cl)c(-c2n[nH]c(=S)n2-c2ccccc2)n1
  -10%, -0.5%, -1%, 8
> O=C(O)CC/C(=N\Nc1ccc([N+](=O)[O-])cc1)c1ccccc1
  ?, ?, 0%, -27
